MT1-MMP act inh – inhibitors of human MT1-MMP activation. P50281. HT1080 RFP-PRO-GFP cells, GFP/RFP ratio fluorescence, overnight; percent of plate control window, DMSO zero. GFP/RFP ratio change, % at 20 µM. 0.061% of 360,000 active. AID 651647;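 active = GFP/RFP ratio change of at least 30% with cell ATP level not reduced by more than half and red fluorescence within 50% of control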; also: strong numbers were not always called active
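Material: RFP-PRO-GFP reporter HT1080 cells. Dosing: single-point 20 µM compound, 1% DMSO. Controls: DMSO and RFP-L50D-GFP cell wells. Timing: cells overnight before dosing, compound overnight, 37 °C, 5% CO2. Measure: GFP/RFP fluorescence ratio.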
CSC inhib – blocks cancer stem cells; 1.1% of 300,000 active; AID 2717; cancer stem cell-like cells viability, luminescence; inhibition, % at 7.5 µM;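 active = mean at 75% or more and at least half the replicates too; inconclusive = mean and replicates disagree; tested in HMLE shEcad cells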;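 also: 0% = median of negative and 100% = median of positive control wells; the first replicate is given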
HIV Env fusion – HIV envelope-mediated fusion inhibition. HeLa-JRFL Env/CEM21 cell fusion, luciferase. AID 651610. inhibition, % at 12.3 µM. 1.1% of 360,000 active;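 active = mean replicate inhibition score of at least 50 and every replicate individually at or above 50; inconclusive = only one of the two criteria met; inactive = mean below 50 and not all replicates reaching 50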;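 also: 0% = plate neutral controls and 100% = maraviroc near 300 nM; one replicate is shown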
Yeast UUG start – yeast start codon fidelity modulation; activity score, % at 18.7 µM; S. cerevisiae UUG-firefly luciferase reporter, luminescence/redox ratio; 0.13% of 350,000 active; AID 602363;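 active = replicate mean at a twofold rise or more, about +100% in these data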;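 also: firefly luciferase made from a UUG start codon reports start codon fidelity; reporter light over untreated wells divided by growth signal over untreated wells; some hits fall short of that in this replicate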
Rce1 inh – yeast Ras-converting enzyme inhibition; Q03530; calls only; yeast membranes, quenched prenylated peptide cleavage fluorescence; 0.27% of 290,000 active;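 active = fall in fluorescence gain of 50% or more versus controls, with final raw signal at or below 3038400; inconclusive = same 50% fall but final raw signal above 3038400; inactive = fall in fluorescence gain under 50%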;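 also: plate controls were neutral control wells for no effect and wells lacking membranes for full effect; tested at 10 µM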
Target sequence (Q03530 whole entry, looked up): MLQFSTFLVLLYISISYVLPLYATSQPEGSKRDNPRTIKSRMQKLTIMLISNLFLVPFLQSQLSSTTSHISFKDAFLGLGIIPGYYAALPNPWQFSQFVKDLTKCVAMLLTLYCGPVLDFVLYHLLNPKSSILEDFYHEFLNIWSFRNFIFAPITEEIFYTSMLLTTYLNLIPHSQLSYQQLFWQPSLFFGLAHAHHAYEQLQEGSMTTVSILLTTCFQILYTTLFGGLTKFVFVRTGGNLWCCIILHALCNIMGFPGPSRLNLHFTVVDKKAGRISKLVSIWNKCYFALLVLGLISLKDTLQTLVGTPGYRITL
eIF4H FP inh – inhibitors of RNA binding by human eIF4H | AID 2012 | Q15056 | inhibition, % at 35 µM | 0.94% of 290,000 active | eIF4H fluorescence polarization binding assay;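 active = 50% or more with normal probe brightness, or confirmed in later tests; inconclusive = above 50% with abnormal brightness, or retests that disagree; inactive = below 50% or failed in later tests; about a fifth of its hits are not listed in these tables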;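 also: calls also rest on retests at 20 µM and on dose response follow-up; 0% = protein and probe with vehicle and 100% = probe without protein; strong numbers were not always called active; many hits fall short of the cut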
PABP polyA inh – blocks human PABP binding to poly(A) RNA; P11940; fluorescence polarization; 1% of 290,000 active; inhibition, % at 35 µM;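 active = 50% or more with normal probe brightness, or confirmed in later tests; inconclusive = above 50% with abnormal brightness, or retests that disagree; inactive = below 50% or failed in later tests; about a fifth of its hits are not listed in these tables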;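 also: calls also rest on retests at 20 µM and on dose response follow-up; controls were probe without protein and protein plus probe with vehicle; some compounds called inactive have numbers as strong as hits; many hits fall short of the cut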
MT1-MMP act inh RFP – second read-out of MT1-MMP act inh, no call of its own (marks repeat the call); RFP signal change, %; measured here: RFP expression control read;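 0 = vehicle wells; hits needed this value within 50% of zero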
Active calls of the source: *; i = inactive; u = inconclusive; x = not tested or not shown.

canonical_smiles	PABP polyA inh	CSC inhib	Rce1 inh	MT1-MMP act inh	HIV Env fusion	Yeast UUG start	eIF4H FP inh	MT1-MMP act inh RFP
O=S(=O)(c1ccccc1)[C@@]1(c2ccc(Br)cc2)C[C@@H]2ON=C(c3ccccc3)[C@@H]2C1	x	-28	i	-2	27	-13	x	-8
Cc1noc(NC(=O)c2c(-c3c(Cl)cccc3Cl)noc2C)c1[N+](=O)[O-]	16	4	i	5	4	-7	-1	-7
CCCCc1nnc(NC(=O)C2CC(=O)N(Cc3ccccc3)C2)s1 (centres undefined)	12	-24	i	0	10	-9	-3	3
CCC(=O)NNc1nc2c(Cl)cccc2s1	-14	-7	i	1	1	x	4	1
O=C(CNC(=O)c1nc[nH]c1C(=O)NCc1ccccc1)OCc1ccccc1	-9	-8	i	1	-22	-12	-4	1
CN1C(=O)c2ccccc2C(C(=O)NCC2CCCO2)C1c1c[nH]c2ccccc12 (centres undefined)	1	-19	i	2	x	-15	7	4
COc1cc(C(=O)OCc2cc3ccccc3[nH]c2=O)cc(OC)c1OC	u	2	i	1	x	-11	-9	3
COC(=O)CCn1c(C)cc(C(=O)COc2ccccc2C(N)=O)c1C	4	21	i	-4	6	x	-2	-25
COC(=O)c1cc2cc(OC)ccc2n1C	x	14	x	1	-38	-28	x	1
CCN(CC(=O)Nc1c(C(=O)OC)[nH]c2ccccc12)c1ccc2c(c1)OCO2	32	-7	i	-9	-35	-4	16	-8
COC(=O)/C=C/C(=O)N1CCN(c2ccccc2)CC1	4	-3	i	-2	x	-7	-4	-1
CCC1CCCCN1CCCNC(=O)c1ccc(/C=C2/Sc3ccccc3NC2=O)cc1 (centres undefined)	-12	-2	i	8	11	-25	-14	-4
CCN(CC)S(=O)(=O)c1ccc(N2CCN(c3ccccc3OC)CC2)c(N)c1	-1	10	i	5	43	-16	-2	-27
COc1ccc(-c2cc(C(=O)O)c(C)o2)cc1OC	0	1	i	6	-42	-62	3	1
CN(C)CCCN(C(=O)c1sc2ccccc2c1Cl)c1nc2c(F)cccc2s1	1	-3	i	2	4	-7	2	5
COc1ccc(OCC(=O)N2CCN(c3cccc(Cl)c3)CC2)cc1	3	-3	i	0	x	-11	-7	-6
O=C(O)CCCCCCCCCCCNC(=O)NC12CC3CC(CC(C3)C1)C2	x	-3	x	9	5	-15	x	3
CCCCC(CC)CNC(=O)c1cc2ccccc2c(=O)o1 (centres undefined)	-4	4	i	8	-96	-9	2	2
Cc1cc(C(F)(F)F)nn1CC(=O)N(C)C1CCCCC1	x	5	i	6	x	x	x	8
Cc1cc(-c2ccccc2)nc(N(C)NC(=O)c2ccc(Cl)cc2)c1S(C)(=O)=O	4	2	i	-5	x	5	-4	-5
COc1ccc(-n2cc([N+](=O)[O-])c(=O)c3ccc(Cl)cc32)cc1	x	-18	i	2	9	-18	x	-1
O=C(Cn1c(=O)n2ncnc2c2c3c(sc21)CCCC3)c1ccccc1	0	x	i	-4	7	-16	-4	-8
CC(=O)N1CCN(C(=S)NC(=O)C23CC4CC(CC(C4)C2)C3)CC1	-7	-9	i	-1	2	x	-1	3
CCOc1ccccc1NC(=O)c1sc2nc(C)nc(N3CCOCC3)c2c1C	6	-8	i	5	7	-3	3	2
CCC(CC)C(=O)Nc1cccc(C(=O)Nc2nccs2)c1	-4	1	i	4	-17	-9	-9	1
O=C(CN1C(=O)NC2(CCCCC2)C1=O)Nc1ccc2c(c1)CCC2	9	1	i	1	-10	x	8	2
CCN1C(=S)N[C@@H](c2ccccc2)C(C(=O)OC)=C1C	3	3	i	3	-15	-4	-6	2
Cc1ccc(S(=O)(=O)c2ccc(Cl)cc2)cc1S(=O)(=O)NC(C(=O)O)C(C)C (centres undefined)	-7	11	i	2	22	x	-5	4
NC(=O)c1cc(-c2csc(-c3cccnc3)n2)ccc1O	15	-10	x	-1	-28	-9	2	-3
Cc1ccc(C)c(N2CC(C(=O)Nc3nccs3)CC2=O)c1 (centres undefined)	1	x	i	1	4	-22	2	5
CCOC(=O)c1c(C)[nH]c(C)c1C(=O)COC(=O)c1cccnc1Cl	x	-22	x	4	-11	-15	x	5
COc1cc2c(cc1OC)C(c1ccccc1)NC(C)(C)C2 (centres undefined)	-2	-4	i	-3	19	-9	-3	1
Cc1ccn2c(Nc3ccccc3C)c(-c3ccncc3)nc2c1	4	-2	i	2	x	-17	7	1
O=C(c1sc2ccccc2c1Cl)N1CCN(c2ccccn2)CC1	13	-12	i	3	28	3	-11	-1
CC(Oc1ccc2c3c(c(=O)oc2c1)CCC3)C(=O)NCCN1CCOCC1 (centres undefined)	-6	-3	i	-2	-1	-19	-3	-3
COc1ccc(NS(=O)(=O)c2cccc(C(=O)N/N=C(\C)c3cccnc3)c2)cc1	x	x	x	3	-1	-11	x	-2
CN(C)c1ccc(NS(=O)(=O)c2cccc(Cl)c2)cc1	-3	0	i	3	3	6	-6	-1
Cc1ccsc1/C=N/N=C1\C(=O)Nc2ccccc21	-5	-16	i	1	-141	x	-6	2
O=[N+]([O-])c1ccc(NN=Cc2ccc3c(c2)OCO3)nc1	x	x	x	-3	-69	-21	x	0
O=C(COC(=O)c1cccc(C(=O)OCC(=O)c2ccc(Br)cc2)n1)c1ccc(Br)cc1	5	-7	i	-6	-176	-9	4	4

Filtered by structure, those above containing two or more sulfur atoms (2)
canonical_smiles	PABP polyA inh	CSC inhib	Rce1 inh	MT1-MMP act inh	HIV Env fusion	Yeast UUG start	eIF4H FP inh	MT1-MMP act inh RFP
CN(C)CCCN(C(=O)c1sc2ccccc2c1Cl)c1nc2c(F)cccc2s1	1	-3	i	2	4	-7	2	5
Cc1ccc(S(=O)(=O)c2ccc(Cl)cc2)cc1S(=O)(=O)NC(C(=O)O)C(C)C (centres undefined)	-7	11	i	2	22	x	-5	4

(cont.)
canonical_smiles	PABP polyA inh	CSC inhib	Rce1 inh	MT1-MMP act inh	HIV Env fusion	Yeast UUG start	eIF4H FP inh	MT1-MMP act inh RFP
COc1ccccc1-c1c(C#N)c(N)nc2c1CCc1ccccc1-2	3	x	i	-22	26	x	11	-7
COC(=O)c1cnn(-c2ccccc2)c1N	-10	x	i	-2	2	-13	0	3
O=C(Nc1ccc(Cc2ccncc2)cc1)C1CCC(N2C(=O)C3C4C=CC(C4)C3C2=O)CC1 (centres undefined)	-8	-11	i	4	46	0	-11	-17
COc1ccc(COc2ccccc2C(=O)NCc2ccccc2)cc1F	4	11	i	-4	23	7	-13	-16
Cc1ccc(NC(=O)COC(=O)c2ccc(NC(=O)CC#N)cc2)cc1S(=O)(=O)N1CCOCC1	x	8	x	-2	-1	-16	x	-1
Cc1cc2c(cc1C)NC(c1ccccn1)C1=C(CC(C)(C)CC1=O)N2 (centres undefined)	6	-1	i	-2	x	-13	6	3
CCOc1ccc(NC(=O)c2cc(S(=O)(=O)N3CCOCC3)cn2C)cc1	-2	7	i	2	-18	-8	-5	6
COc1ccc(S(=O)(=O)NC2CCCC2)cc1NC(C)=O	-16	-5	i	4	0	-9	0	6
CC(NC(=O)c1ccc(Br)o1)c1ccccc1 (centres undefined)	-6	-11	i	-2	10	-11	-12	2
Cc1ccc(N=C(NOC(=O)c2ccccc2)c2nonc2N)c(C)c1	-11	-2	i	-2	x	-6	-10	1
Cc1occc1C(=O)Nc1cccc(Cl)c1Cl	-6	-5	i	-3	-6	-18	-7	1
COc1ccc(Cn2c(=O)[nH]c3cc(C(=O)NCCCOC(C)C)ccc3c2=O)cc1	-2	-8	i	6	2	-7	-3	-4
CSc1nc2ccc(NC(=O)c3c(F)cccc3F)cc2s1	4	5	i	3	-33	-11	-8	2
O=C(c1cccc2ccccc12)C1CCCN(C(=O)C2CCOCC2)C1 (centres undefined)	2	-9	i	-4	6	-13	9	-4
CCN1C(=O)N[C@@H](c2ccccc2)[C@H](C(=O)OC)[C@H]1C	x	9	i	0	-26	-12	x	1
C[C@@H]1CCCCO[C@@H](CN(C)Cc2ccccc2)[C@@H](C)CN([C@H](C)CO)C(=O)c2cc(N(C)C)ccc2O1	x	x	x	-3	22	-9	x	1
CCOC(=O)c1c(NC(=O)CSc2nnnn2-c2ccc3c(c2)OCCO3)sc(C)c1C	-3	-10	i	0	x	3	-1	-1
c1ccc2c(c1)nc(N1CCOCC1)c1nncn12	-9	-1	i	-3	x	6	-8	3
CCN(CC)S(=O)(=O)c1ccc2oc(C(=O)NCC3COc4ccccc4O3)c(C)c2c1 (centres undefined)	-3	35	i	10	-2	-16	-3	-10
Cc1nnc2ccc(-c3cccc(NS(C)(=O)=O)c3)nn12	11	-8	i	7	-22	x	-1	3
O=C(NNC(=O)c1cc(-c2ccncc2)nc2ccccc12)Nc1ccc(F)cc1	12	1	i	-1	-3	-2	7	-1
C/C(=N\NC(=O)CCCC(=O)O)c1c(-c2ccccc2)c2cc(Cl)ccc2[nH]c1=O	-3	-15	i	5	15	x	-12	5
O=C(NN1CCCCC1)c1ccccc1	4	5	i	2	-1	-17	-1	3
Cc1cc([N+](=O)[O-])ccc1NC(=O)c1ccc(NC(=O)C(C)C)cc1	-2	5	i	5	-20	-12	-2	-5
CC1=C(C)C(=O)N(c2ccccn2)C1=O	-2	12	i	3	x	-12	-3	1
COc1ccc(-n2c(=O)[nH]cc(C(=O)Nc3ccc4c(c3)OCCO4)c2=O)cc1	0	-9	x	-1	-30	-7	-6	2
CCc1nc2ccccc2[nH]1	1	3	i	-4	x	-7	3	1
Cc1ccc(OCC(=O)NNC(=O)CCc2ccccc2)cc1	-2	-9	i	1	x	-12	-11	-1
COc1ccc(NC(=O)C2CC(c3c(F)cccc3Cl)=NO2)cc1OC (centres undefined)	4	2	i	4	0	-8	8	-9
Cc1cc(C)nc(NS(=O)(=O)c2ccc(NC(=O)CCN3C(=O)c4ccccc4C3=O)cc2)n1	-1	1	i	2	-15	-17	-1	7
Cc1cc(-c2nnc(-c3cc4ccccc4oc3=O)o2)c(C)n1-c1ccccc1	3	33	i	-1	-67	-8	-6	-1
CC(C)=N/N=C(\c1cccc([N+](=O)[O-])c1)C12CN3CN(CN(C3)C1)C2	-2	-24	i	0	13	x	-11	2

Screening data: PubChem, several laboratories
